# gsp ag: qHTS for Agonist of gsp, the Etiologic Mutation Responsible for Fibrous Dysplasia/McCune-Albright Syndrome: qHTS; Potency, µM (doses to about 76.9 µM), for inactives: at the highest dose activation (cAMP increase), actives largely listed as activators; gsp mutant cells, cAMP HTRF, 30 min; control for the full effect not named in the record; actives 0.13% (n = 340,000); active = well fitted activation curve with a large enough effect; inconclusive = small, poorly fitted or top-dose-only effect, or another doubt; inactive = no such curve, though single readings can be large or run the other way; cell line not stated here;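 further: phosphodiesterase inhibitor Ro 20-1724 added with compounds to block cAMP breakdown; potency means the concentration at half of the fitted maximal effect; nearly all actives have a fitted effect of over 60% in size; about a fifth of the inactives were tested at one dose only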
#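 Cells in DMEM/10% FBS with G418 were pretreated with compounds in DMSO plus […] (300 uM stock) for 30 min at 37C. cAMP was measured by HTRF (cAMP-d2 plus anti-cAMP antibody-K) after 30 min at room temperature.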
# Menin MLL FP FL: qHTS Assay for Inhibitors Targeting the Menin-MLL Interaction in MLL Related Leukemias: Competition With Fluorescein Labeled MLL-derived Peptide | Fluorescence polarization, fluorescein-MLL peptide displacement from menin | FP activity change, % at 61.4 µM | 290,000 tested, under 10 active | AID 1766, 2009; inconclusive = falling polarisation curve, or a change in total fluorescence; inactive = total fluorescence flat and polarisation flat or rising; no compound was filed as active; the % refers to the polarisation; negative = inhibition;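 further: % of control where 0% means no effect; inhibitors lower the polarisation; unlabelled MLL peptide was the positive control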
# Sfp PPTase inh: qHTS Assay for Inhibitors of Bacillus subtilis Sfp phosphopantetheinyl transferase (PPTase) | Potency, µM, inactives show max response, negative = inhibition, usual class: inhibitors | Biochemical Sfp PPTase activity, qHTS | AID 1490, 2009 | actives 3.5% (n = 310,000); active means well fitted inhibition curve with a large enough effect; inconclusive means small, poorly fitted or top-dose-only effect, or another doubt; inactive means no such curve, though single readings can be large or run the other way;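 further: the enzyme is Sfp with the accession as filed and its product quenches rhodamine fluorescence; potency means the concentration at half of the fitted maximal effect; 0% = enzyme reaction without inhibitor and -100% = no enzyme wells; top concentration of the series not given in the record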
#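 Buffer: 50 mM Hepes-Na pH 7.6, 10 mM MgCl2, 0.01% Nonidet P-40, 0.01% BSA. Enzyme 15 nM, pre-exposed to compound 15 min; substrates then added and fluorescence change tracked over 30 min.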
# ClpP mod: qHTS Assay for Activators of ClpP. ATP-dependent Clp protease proteolytic subunit (Bacillus subtilis (strain 168)), P80244. purified B. subtilis ClpP, FRET peptide cleavage, 20 min. Potency, µM (titrated, usually from 57.5 µM), for the others: at the highest dose activity change, negative = active. actives 1.9% (n = 340,000). AID 651965, 2013; active = well fitted falling curve with a large enough effect; inconclusive = small, poorly fitted or top-dose-only effect; inactive = no such curve, though single readings can be large or run the other way; further: potency means the concentration at half of the fitted maximal effect; the source files actives as falling curves though it sought activators and does not explain the sign; nearly all actives have a fitted effect of over 65% in size; many hits overshoot -100%
# Target sequence (P80244 whole entry, looked up): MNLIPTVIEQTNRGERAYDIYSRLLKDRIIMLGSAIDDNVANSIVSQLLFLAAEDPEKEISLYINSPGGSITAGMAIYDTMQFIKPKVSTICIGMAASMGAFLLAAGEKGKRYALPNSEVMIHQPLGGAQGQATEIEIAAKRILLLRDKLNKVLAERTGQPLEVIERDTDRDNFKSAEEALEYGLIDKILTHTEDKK
#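 Purified B. subtilis ClpP, 10 microg/mL final in Tris/HCl pH8 with KCl, BSA, glycerol and Tween-20, cleaved an Abz/nitrotyrosine-quenched decapeptide. Fluorescence (ex 320, em 430) was read at 0 and 20 min at room temperature. Delta was normalized to 5.8 microM ADEP and DMSO/no-enzyme controls.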
# PINK1 modulator: A Quantitative High throughput Screen to Identify Chemical Modulators of PINK1 Expression; AID 624263, 2012; actives 0.2% (n = 410,000); PINK1 immunofluorescence, high-content cytometry, 24 h; Potency, µM (doses to about 76.6 µM), without a hit: at the highest dose activation (PINK1 increase), most hits filed as activators; active = well fitted activation curve with a large enough effect; inconclusive = small, poorly fitted or top-dose-only effect; inactive = flat fitted curve, though single readings scatter; cell line not stated here;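 further: potency means the concentration at half of the fitted maximal effect; % of control where 0% means no effect; nearly all actives have a fitted effect of over 65% in size; a mitochondrial uncoupler was the plate control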
#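 Fluorescence from anti-PINK1 antibody, together with nuclear and cell stains, was scanned on a laser-scanning cytometer. Before staining, stable-line cells were incubated 24 hours with compounds at 5 concentrations; primary antibody 12 h at 10 degrees C.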
# gsp antagonist: qHTS for Antagonists of gsp, the Etiologic Mutation Responsible for Fibrous Dysplasia/McCune-Albright Syndrome: qHTS; gsp-mutant cells, cAMP HTRF, 30 min; control for the full effect not named in the record; actives 0.4% (n = 340,000); Potency, µM (series often up to 76.9 µM), inactives show top-dose activity change, negative = inhibition, most hits filed as inhibitors; AID 624288, 2012; active = falling curve of any shape with a large fitted effect; inconclusive = falling curve, mostly with a smaller effect; inactive = flat or rising curve; cell line not stated here;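 further: intracellular cAMP measured with PDE inhibitor Ro 20-1724 present during compound exposure; potency means the concentration at half of the fitted maximal effect; on the % scale 0 is the no-effect control and ±100 the full control effect; nearly all actives have a fitted effect of over 65% in size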
#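 G418-selected cells were plated in DMEM/10% FBS for 16-24 h at 37C, then treated with compounds plus the PDE inhibitor […] (300 uM solution added) for 30 min at 37C. Intracellular cAMP was measured by HTRF after 30 min lysis at room temperature.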
# D2 ag: Beta-Arrestin HTS for Positive Allosteric Modulators of the Human D2 Dopamine Receptor: Agonists; D(2) dopamine receptor (Homo sapiens), P14416; actives 0.084% (n = 360,000); activation, % (no concentration beside the values); DiscoveRx PathHunter D2 beta-arrestin, luminescence, 90 min; 100% = 57 uM dopamine signal; in the data active = activation above about 40%; inconclusive = about 15% to 40%; inactive = below about 15%; further: compound concentration not given in the record; the text of the record calls up to 30% inactive
# Target sequence (P14416 whole entry, looked up): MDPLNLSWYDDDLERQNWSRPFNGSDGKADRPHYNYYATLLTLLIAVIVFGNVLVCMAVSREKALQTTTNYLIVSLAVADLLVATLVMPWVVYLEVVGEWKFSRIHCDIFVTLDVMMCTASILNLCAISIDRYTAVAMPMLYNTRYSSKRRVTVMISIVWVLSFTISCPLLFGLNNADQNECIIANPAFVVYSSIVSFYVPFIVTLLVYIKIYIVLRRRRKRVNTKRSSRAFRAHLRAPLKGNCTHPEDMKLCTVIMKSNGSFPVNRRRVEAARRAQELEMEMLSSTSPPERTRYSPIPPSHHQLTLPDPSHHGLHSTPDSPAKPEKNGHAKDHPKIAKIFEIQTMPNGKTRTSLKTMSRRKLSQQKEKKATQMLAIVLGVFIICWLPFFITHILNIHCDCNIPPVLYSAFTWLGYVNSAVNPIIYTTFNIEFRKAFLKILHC
#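 Agonist mode: compounds alone added to overnight-plated D2 PathHunter cells for 90 min at 37 C, with 57 uM final dopamine (EC100) defining full response. Beta-arrestin recruitment detected by chemiluminescent reagent, read after 1 h at ambient temperature.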
# An asterisk follows results filed as active; ? = inconclusive; · = not tested or not shown; & = joins results of further samples; [ ] = remark or other dose.
SMILES,gsp ag,Menin MLL FP FL,Sfp PPTase inh,ClpP mod,PINK1 modulator,gsp antagonist,D2 ag
CCOC(=O)c1cnc2c(C#N)c(C)nn2c1C,?,0.6,-2.2%,?,-1.5%,4.6%,-2.0
O=C(NCc1ccc2c(c1)OCO2)c1nc(Cn2ccc([N+](=O)[O-])n2)no1,-2.3%[15.4 µM],8.4,17.4%,·,0.5%,16.4%,-0.5
O=C(O)c1cc2cc(Cl)ccc2[nH]1,·,2.0&-2.6,-3.8%&26.2%,-22.7%,-0.1%&0.5%,-0.9%,-3.2
Cc1cccc(OCCC(=O)NCC(c2ccccc2)N(C)C)c1 (centres undefined),?,0.9,-0.5%,-12.2%,3.7%[38.3 µM],7.6%,-1.1
COc1ccc(/C=C2\SC(=S)N(CCC(=O)Nc3cccc(C(=O)O)c3)C2=O)cc1OC,?,?,-8.4%,-0.3%,-1.2%,?,0.6
CCS(=O)(=O)N1CCN(Cc2ccc([N+](=O)[O-])cc2)CC1,4.2%,5.1,79.4µM*,1.0%,0.3%,9.2%,-2.4
Cc1nc(-c2cccc(NC(=O)C(C)Oc3ccccc3)c2)cs1 (centres undefined),-1.0%[15.4 µM],·,2.9%,1.7%,0.1%,-24.0%,-1.1
Nc1nc(SCC(=O)NCc2ccco2)[nH]c(=O)c1-c1ccccc1,1.9%,1.6,5.8%,0.2%,-2.0%[38.3 µM],-8.9%,-2.3
Cc1ccc(-n2ccc(=O)c(C(=O)O)n2)cc1,-127.7%[inhibitor],2.9,10.8%,1.3%,0.5%,5.1%,-2.2
Cc1ccc(S(=O)(=O)N2CCOCC2)cc1C(=O)OCC(=O)NC1CC1,-31.2%[inhibitor],·,·,-1.9%,-0.4%,0.5%,-2.2
COc1ccc(C2(C(=O)NCCN3CCOCC3)CCOCC2)cc1,4.0%,4.9,15.5%,1.2%,8.2%[38.3 µM],3.0%,-2.1
N#Cc1ccsc1NC(=O)C1CCN(C(=O)c2ccc(F)cc2)CC1,3.6%,·,·,-1.9%,1.2%,0.3%,6.8
CSC1=C(C#N)C(c2ccccc2C)C(C#N)=C(N)N1 (centres undefined),-0.7%,5.4,2.4%,-1.2%,1.9%,-1.1%,-9.6
COCCNC(=O)Cn1cnc2c1c(=O)n(C)c(=O)n2C,28.2%,0.2,11.7%,-1.1%,-2.2%,10.1%,0.2
CCC(O)CNc1nc(-n2nc(C)cc2C)nc2sc3c(c12)CC(C)(C)OC3 (centres undefined),-9.8%,-1.7,14.6%,-5.1%,6.9%,9.7%,-3.6
CN(C)c1nc(F)c(F)c(S(=O)(=O)c2ccccc2)c1F,-2.5%[15.4 µM],1.9,6.8%,0.2%,1.3%,7.0%,0.4
COc1cccc(NC(=O)CN(C)C(=O)c2cc(Cl)nc3ccccc23)c1,-158.9%[inhibitor],·,·,-5.3%,-0.2%,·,1.4
C[C@H](NC(=O)[C@H]1N2C(=O)c3ccccc3C2SC1(C)C)C(=O)N1CCC[C@H]1C(=O)O (some centres undefined),·,-1.0,-4.8%,-3.9%,0.2%,9.0%,2.8
CC1Sc2ccc(S(=O)(=O)CCC(=O)N3CCN(c4ccccc4)CC3)cc2NC1=O (centres undefined),4.4%,-0.5,12.9%,-0.5%,1.2%,-8.6%,3.1
O=C(Cc1ccccc1F)NC1CCCN(Cc2ccc(Cl)cc2)C1 (centres undefined),-3.2%,-5.1,7.3%,2.4%,0.3%,-5.2%,-1.3
COc1cc2nc(SCC(=O)NCCc3ccccc3)n(Cc3ccco3)c(=O)c2cc1OC,-28.8%,8.1,-13.3%,0.7%,·,-8.1%,-1.3
COc1ccc(-c2nc(CS(=O)CC(=O)NCCCN3CCCC(C)C3)c(C)o2)cc1OC (centres undefined),25.5%,·,-0.1%,3.6%,-0.1%,10.1%,1.1
CN(c1ccc(C(=O)N2CCN(c3ccccc3F)CC2)cc1)S(=O)(=O)c1ccccc1,-28.2%,2.5,-3.1%,·,2.2%,-22.8%,7.1
CN1C(=O)c2ccc(C(=O)NCc3ccc4c(c3)OCO4)cc2C1=O,-0.7%,8.1,14.3%,-1.6%,1.5%,5.5%,-1.3
CCOC(=O)N1CCN(C(=O)C(=O)NN)CC1,-10.6%[15.4 µM],2.3,1.1%,·,-1.6%,-1.3%,-3.6

# (listing goes on)
SMILES,gsp ag,Menin MLL FP FL,Sfp PPTase inh,ClpP mod,PINK1 modulator,gsp antagonist,D2 ag
CCN1CCN(c2ccc(S(=O)(=O)N3CCCCC3)cc2NC(=O)c2cccc(C)c2)CC1,6.0%,·,·,-8.6%,2.8%,-9.2%,-6.2
Cc1ccccc1NS(=O)(=O)c1ccc(C(=O)N2CCN(S(=O)(=O)c3ccccc3)CC2)cc1,-7.2%,·,·,-0.9%,1.3%,0.8%,0.7
Cc1cc(C)nc(N(C#N)CCOc2ccc(Cl)cc2)n1,-62.9%[inhibitor],8.5,6.4%,-2.5%,0.9%,-6.0%,1.4
CC(C)[C@H](NC(=O)[C@H](Cc1ccccc1)n1c(=O)[nH]c2ccccc2c1=O)C(=O)N1CCC[C@@H]1C(=O)O,·,-4.6,7.4%,-18.0%,0.3%,8.4%,-4.1
O=C(CSc1nc2[nH]ncc2c(=O)[nH]1)Nc1ccccc1C(F)(F)F,-1.0%,·,·,?,3.1%,1.6%,2.4
Cc1c(C(=O)NCCCN2CCOCC2)oc2c1C1(CCC2)SCCS1,-20.4%,5.7,-7.5%,6.6%,0.8%,14.0%,-1.2
Cc1cccc(NC(=S)Nc2ccc(Cl)c(Cl)c2)c1,?,-1.1,9.9%,·,?,1.7%,2.1
CSc1ccc(S(=O)(=O)Nc2c(C)cccc2C)cc1,-38.4%,4.4,5.1%,0.2%,-3.3%[38.3 µM],-7.8%,-0.7
Cc1cc(=O)[nH]c(Cc2ccc(OC(C)C)cc2)n1,?,0.7,17.2%,1.4%,·,4.3%,-0.8
CCCCc1nnc(NC(=O)CN2C(=O)c3ccccc3C2=O)s1,2.3%,1.8,-8.3%,1.6%,1.2%,-15.4%,-3.1
CC1CCCN(Cc2c(C(=O)N3CCc4ccccc4C3)nc3ccc(Cl)cn23)C1 (centres undefined),?,·,-2.9%,-5.5%,1.2%,-3.7%,-1.7
O=C(CNC(=O)c1ccccc1F)NC1=NCCS1,24.6%,·,13.0%,0.7%,-0.6%,0.6%,-0.7
O=C(Cn1ccn(-c2ccc(F)c(F)c2)c(=O)c1=O)NCCc1ccccc1,7.3%,-4.2,7.5%,-3.7%&-2.1%,-0.2%&-0.1%,8.9%,2.9
Cc1onc(-c2c(Cl)cccc2Cl)c1C(=O)N1CCN(c2ccccc2F)CC1,-20.1%,3.9,3.2%,-0.7%,5.0%,?,-7.8
Cc1cc(C)c(S(=O)(=O)c2ccccc2C)c(OCCO)n1,13.0%,-8.4,14.3%,·,14.0%,-1.2%,-1.3
CC1(C)CN(CCc2ccccc2)C(=O)[C@H]1CC(=O)Nc1ccccc1,?,·,·,-1.1%,-0.2%,·,-1.7
Cc1cccc(NC(=O)C2CCN(C(=O)[C@@H]3Cc4ccccc4CN3)CC2)c1,-8.7%,-2.2,6.3%,0.8%,0.7%,-7.6%,-4.4
CCn1c2ccc(F)cc2c2nc3ccccc3nc21,?,-12.8,-3.2%,·,1.7%,0.9%,3.8
O=C(N/N=C/c1ccco1)Nc1ccccc1,12.1%[15.4 µM],4.8,5.4%,?,1.7%,3.7%,0.3
COc1ccc(OC)c(/C=N/N(C)c2ccccc2)c1,7.8%,2.8,?,0.8%,-1.6%,?,-0.6
CCOC(=O)N1CCN(C(=O)Cc2ccc(-n3c(=S)[nH]c4ccccc4c3=O)cc2)CC1,-5.4%,2.5,4.7%,-0.5%,0.8%[38.3 µM],-13.8%,1.0
COc1cc(C(=O)NCC(c2cccs2)N2CCOCC2)cc(OC)c1OC (centres undefined),-10.8%,·,·,1.8%,-0.6%,12.6%,-4.7
O=C(O)C=C(Br)Br,·,0.2,-1.3%,-3.3%,0.3%,5.3%,-3.7
CN(C)/C=C(\C#N)C(=O)Nc1ccccc1,?,2.4,17.4%,·,-1.9%,5.3%,-0.1
CN(C)c1ccc(C(=O)OCC(=O)NCCNC(=O)COC(=O)c2ccc(N(C)C)cc2)cc1,-45.2%[inhibitor],·,3.9%,-4.7%,15.2%,-9.3%,-5.1

# Going on with the list:
SMILES,gsp ag,Menin MLL FP FL,Sfp PPTase inh,ClpP mod,PINK1 modulator,gsp antagonist,D2 ag
CSc1ncc(Cl)c(C(=O)Nc2ccccc2Cl)n1,-46.3%[inhibitor],0.6,0.4%,-1.7%,5.3%,2.6%,-0.3
O=C(Nc1ccc(Cl)cc1)Nc1nnc(-c2ccncc2)s1,13.2%,2.3,-11.6%,-12.6%,7.94µM*,-33.1%,0.5
COc1ccc(NC(=O)CN2CCN(C(=O)c3ccco3)CC2)c(OC)c1,-17.5%,5.9,11.4%,-1.9%,-0.4%,5.6%,10.0
CCCn1c(/N=C/c2cc(OC)ccc2O)nc2ccccc21,3.9%,5.8,8.4%,-1.8%,-0.3%,4.4%,0.4
Cc1cc(C)n(-c2ccc(C(=O)Nc3ccc(C)c(S(=O)(=O)N(C)C)c3)cc2)n1,15.0%[15.4 µM],-1.1,-12.1%,-0.4%,-0.7%,?,5.1
CC(C)c1ccccc1NC(=O)c1ccco1,4.8%,9.1,7.3%,1.9%,2.3%[38.3 µM],-0.6%,0.0
Cc1ccc(C(=O)OCC(=O)Nc2ccc3c(c2)OCO3)o1,-14.5%,3.5,13.2%,0.7%,-1.1%,6.5%,-0.6
O=C(NCCCNC(=O)c1cncc(O)c1)c1cncc(O)c1,-0.3%[15.4 µM],-0.6,1.2%,·,2.1%,9.0%,3.4
COC(=O)[C@@H](Cc1c[nH]c2ccccc12)NC(=O)CCC(=O)c1ccc(F)cc1,14.7%,6.5,-1.8%,-3.0%,0.9%,-1.5%,0.7
CC(C)c1nc(SCC(=O)Nc2cccc(C(F)(F)F)c2)c2c(=O)n(C)c(=O)n(C)c2n1,?,-1.2,5.7%,-0.2%,5.2%,-14.1%,-7.7
